Mtb betalactam – beta-lactam sensitization of Mtb H37Rv. M. tuberculosis H37Rv growth with meropenem, percent inhibition; hits of this screen are not shown here. inhibition, % at 25 µM. 0.27% of 330,000 active;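 active = about 74% or more and at least 40 points above the plate without the antibiotic, then above 30% in a dose series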;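 also: growth measured after seven days incubation then overnight dye step; 0% = bacteria only wells and 100% = bacteria with antibiotic; twin plates without the antibiotic show which effects depend on it; some results filed as inactive read as strong as hits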
YopH inh – inhibitors of Yersinia enterocolitica YopH tyrosine phosphatase | fluorescence Ex485/Em525 | inhibition, %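 (about 10 µM by stock and volumes)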 | 0.16% of 140,000 active;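 active = inhibition of 50% or more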;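 also: controls were vehicle for no effect and minimum signal wells for full effect; inactives centre near -20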
RecA splice inh – Mtb RecA intein splicing inhibition; cell-free RecA intein splicing, fluorescence; P9WHJ3; 0.75% of 290,000 active; inhibition, %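 (about 9 µM by stock and volumes)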; in the data active = inhibition above about 30%;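 also: 0% = vehicle wells and 100% = reference inhibitor control wells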
Target sequence (P9WHJ3 whole entry, looked up, canonical isoform): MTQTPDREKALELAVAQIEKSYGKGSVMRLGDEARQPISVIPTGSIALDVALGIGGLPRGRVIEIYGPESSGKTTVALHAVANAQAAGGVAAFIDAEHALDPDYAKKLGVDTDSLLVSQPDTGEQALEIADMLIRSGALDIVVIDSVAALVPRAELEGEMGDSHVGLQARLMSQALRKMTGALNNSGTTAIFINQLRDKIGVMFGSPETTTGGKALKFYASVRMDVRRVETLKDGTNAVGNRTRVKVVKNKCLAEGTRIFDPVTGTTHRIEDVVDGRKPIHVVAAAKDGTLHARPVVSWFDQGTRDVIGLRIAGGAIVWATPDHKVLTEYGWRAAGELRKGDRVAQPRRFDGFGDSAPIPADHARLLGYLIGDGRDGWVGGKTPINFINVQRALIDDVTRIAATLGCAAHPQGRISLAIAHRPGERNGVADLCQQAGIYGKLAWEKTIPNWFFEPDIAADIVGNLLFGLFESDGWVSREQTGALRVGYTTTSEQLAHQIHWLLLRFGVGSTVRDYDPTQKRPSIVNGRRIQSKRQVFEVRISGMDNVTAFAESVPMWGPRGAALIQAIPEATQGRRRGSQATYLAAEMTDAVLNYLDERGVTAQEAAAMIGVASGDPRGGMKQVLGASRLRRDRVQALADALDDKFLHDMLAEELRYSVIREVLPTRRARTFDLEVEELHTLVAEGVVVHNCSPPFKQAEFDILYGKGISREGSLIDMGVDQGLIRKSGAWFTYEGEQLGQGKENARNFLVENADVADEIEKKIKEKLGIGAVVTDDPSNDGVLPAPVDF
Arbovirus anti – antivirals against arbovirus infection | arbovirus infection cell-based antiviral screen | inhibition, % at 10 µM | 0.37% of 200,000 active | AID 1251;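 active = inhibition from about 30%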;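 also: bluetongue infection of BSR cells; cell survival read as ATP light after 72 h; 0% = infected wells without compound and 100% = uninfected wells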
Mtb H37Rv – M. tuberculosis H37Rv growth inhibitors, H37Rv strain (AID 1626); M. tuberculosis H37Rv growth inhibition; higher % means a stronger effect; inhibition, % at 10 µM; hits with a dose series show IC50 in µM; 0.95% of 220,000 active;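 active = confirmed in a dose series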;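 also: bacteria incubated seven days before Alamar blue readout; 0% = bacteria only wells and 100% = bacteria with antibiotic wells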
Arbovirus anti repeat – second read-out of Arbovirus anti, no call of its own (marks repeat the call); inhibition, %; measured here: 10K subset replicate screen; many hits read low in the repeat;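 first of two repeat runs on a subset; 0% = infected and 100% = uninfected wells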
Active calls of the source: *; . = not tested or not shown.

SMILES	Mtb betalactam	YopH inh	RecA splice inh	Arbovirus anti	Mtb H37Rv	others
CCc1ccc(-n2c(SCC(=O)N3Cc4ccccc4CC3C(=O)O)nnc2-c2ccncc2)cc1 (stereo not drawn)	-1	.	1.7	.	-4%
CC(C)(C)C(=O)O/N=C(\N)c1ccc(Oc2cc(Cl)cc(Cl)c2)c([N+](=O)[O-])c1	2	.	0.2	.	6%
O=C(CS(=O)(=O)c1ccccc1)Nc1ccc(Cl)cn1	-22	.	-2.3	.	.
CNC(=S)N(Cc1ccco1)Cc1cc2cc3c(cc2[nH]c1=O)OCCO3	-1	-37	1.5	-9	-5%
COc1ccc(OCC(=O)N2CCCC2=O)c([N+](=O)[O-])c1	-13	.	0.1	.	.
CCC(Sc1nc2cc(OC)c(OC)cc2c(=O)n1CCc1ccc(OC)c(OC)c1)C(=O)NCCOC (stereo not drawn)	0	.	.	-3	-8%
CCOC(=O)c1c(C)[nH]c(C(=O)COC(=O)c2ccccc2NC(=O)c2ccco2)c1C	2	-14	5.0	-7	-9%
C=C1CSc2nc(=O)c3c4c(sc3n21)CCCC4	12	-53	-1.6	-2	-16%
NC(=O)c1ccc(NC(=O)COC(=O)C2(c3ccccc3F)CCCC2)cc1	9	.	-1.6	4	1%
CCCCn1c(N)c(N(CC(C)C)C(=O)c2ccc(OCc3c(C)noc3C)cc2)c(=O)[nH]c1=O	-4	.	0.2	.	.
CC(C)N1CCN(C(=O)c2cccc(Cl)c2)CC1	-2	.	-0.2	.	.
Cc1nn(CC2CC2)c(=O)n1-c1ccc(F)cc1	-7	.	-2.1	3	4%
O=C1CC(c2ccccc2)CC(O)=C1C=NCCCN1CCOCC1 (stereo not drawn)	3	-24	1.9	5	-4%
O=C(NCCN1CCOCC1)c1cccnc1SCc1ccccc1Cl	0	.	-1.3	1	-4%
CC(=O)Nc1ccc(N/C=C2/CCCC2=O)cc1	-5	.	0.7	.	7%
O=C(CSc1nc(-c2cccs2)cc(C(F)(F)F)n1)Nc1cc(OCC(F)(F)F)cc([N+](=O)[O-])c1	-4	-36	-1.0	-12	9%
O=C(Nc1ccc(Cl)cc1)Nc1ccc(N2CCC(C(F)(F)F)CC2)nc1	-8	.	1.1	.	0%
O=C(CCN1C(=O)/C(=C\c2ccccc2)SC1=S)N1CCCCC1	97	.	-2.8	.	.
Cc1cc(C(=O)N/N=C/c2cc(Cl)cc([N+](=O)[O-])c2O)n[nH]1	51	.	1.2	.	-8%
Cc1ccc(/C(O)=C/c2nc3cc(C)ccc3oc2=O)cc1	36	.	-7.7	.	17%
Cc1occc1C(=O)Nc1cccc(C(=O)NCc2ccccc2)c1	7	-26	-1.7	-8	6%
O=C(OCc1nc2ccccc2s1)[C@@H]1CCCN1S(=O)(=O)c1ccccc1F	1	-7	4.4	-5	2%
CN1C(=O)COc2ccc(C(=O)c3oc4ccccc4c3-c3cnc4c(c3)COc3ccccc3-4)cc21	.	12	0.7	-5	-2%
COc1cc2c(cc1OC)-c1nnc(-c3cccs3)n1C1(CCCC1)C2	2	-31	0.7	2	-2%

Continued; the last 2 above are carried over.
SMILES	Mtb betalactam	YopH inh	RecA splice inh	Arbovirus anti	Mtb H37Rv	others
CN1C(=O)COc2ccc(C(=O)c3oc4ccccc4c3-c3cnc4c(c3)COc3ccccc3-4)cc21	.	12	0.7	-5	-2%
COc1cc2c(cc1OC)-c1nnc(-c3cccs3)n1C1(CCCC1)C2	2	-31	0.7	2	-2%
O=[N+]([O-])c1ccc(O)c(/C=N/n2c(-c3ccccc3)n[nH]c2=S)c1	0	.	1.5	.	.
COc1cc(/C=C/C(=O)OC(C)C(=O)Nc2c(C)n(C)n(-c3ccccc3)c2=O)ccc1O (stereo not drawn)	3	.	-7.6	.	.
Cc1nn(-c2ccc(Cl)nn2)c(=O)c2ccccc12	-6	.	.	3	3%
CC(C)Cc1cc(C(=O)Nc2ccc(Br)cc2)no1	99	.	3.2	.	69%
CCCCCc1cc(=O)oc2c(C(CCN3CCCCC3)c3ccc(OC)cc3)c(OC)cc(OC)c12 (stereo not drawn)	100	.	23	.	2.9µM*
O=c1c2ccccc2nc(-c2ccccc2Cl)n1O	0	.	-0.8	10	2%
O=C(CCCN1C(=O)c2ccccc2C1=O)NC1CCCCCC1	-7	-17	-5.9	1	-4%
CCOC(=O)C1CCN(C(=O)C2CCN(S(=O)(=O)c3c(C)noc3C)CC2)CC1	-9	-2	0.9	-2	0%
CC1(C)Nc2ccc(O)cc2-c2c1ssc2=S	42	-8	93*	-4	-3%
NNC(=O)C(=O)Nc1ccc(O)cc1	1	.	-1.8	.	5%
CC1CCC(NC(=O)CCCn2sc3ccccc3c2=O)CC1 (stereo not drawn)	-4	.	26	.	.
Cc1ccc(-c2nn(-c3ccccc3)cc2C(=O)NN2CCN(C)CC2)cc1	7	.	-0.3	-1	-10%

Overlap with the part before: 5 compounds; new compounds follow.
SMILES	Mtb betalactam	YopH inh	RecA splice inh	Arbovirus anti	Mtb H37Rv	others
CCOC(=O)C1CCN(C(=O)C2CCN(S(=O)(=O)c3c(C)noc3C)CC2)CC1	-9	-2	0.9	-2	0%
CC1(C)Nc2ccc(O)cc2-c2c1ssc2=S	42	-8	93*	-4	-3%
NNC(=O)C(=O)Nc1ccc(O)cc1	1	.	-1.8	.	5%
CC1CCC(NC(=O)CCCn2sc3ccccc3c2=O)CC1 (stereo not drawn)	-4	.	26	.	.
Cc1ccc(-c2nn(-c3ccccc3)cc2C(=O)NN2CCN(C)CC2)cc1	7	.	-0.3	-1	-10%
CN1CCN(c2ccc(S(=O)(=O)N3CCCCC3)cn2)CC1	4	-6	0.0	8	-5%
CCCCn1c(SCC(=O)N2CC(=O)Nc3ccccc32)nnc1-c1ccoc1C	5	3	1.3	2	-7%
COc1cccc(Oc2cn[nH]c2-c2ccc(O)cc2O)c1	-4	-27	3.3	-3	17%
Cc1coc2c(C)c3oc(=O)c(CCC(=O)N[C@@H](C)C(=O)N[C@@H](Cc4ccccc4)C(=O)O)c(C)c3cc12	-6	.	5.6	.	.
Cc1ccc(S(=O)(=O)NC(=O)c2ccccc2C)cc1	-1	.	-1.4	.	.
COCCCn1c2nc3ccccc3nc2c2c(=O)n(-c3ccccc3OC)cnc21	-5	-19	5.7	6	4%
Cc1ccc(S(=O)(=O)NCCNC(=O)CN2CCOCC2)cc1	0	.	-0.6	.	.
CCCc1cc(=O)n2[nH]c(C)nc2n1	6	-7	-3.0	11	-4%
Cc1csc(N/N=C/c2c(F)cccc2Cl)n1	74	.	-0.8	.	.
CCN(CC)S(=O)(=O)c1ccc(NC(=O)c2ccccc2N(C)S(C)(=O)=O)cc1	2	-15	0.1	2	-2%
Oc1ccc(C23CC4CC(CC(C4)C2)C3)cc1O	-4	.	-0.2	.	.
CCCCc1n(CC(=O)c2ccc(Cl)cc2)c2ccccc2[n+]1C	-2	.	-0.3	3	-2%

The list goes on, overlapping the part above by four compounds.
SMILES	Mtb betalactam	YopH inh	RecA splice inh	Arbovirus anti	Mtb H37Rv	others
Cc1csc(N/N=C/c2c(F)cccc2Cl)n1	74	.	-0.8	.	.
CCN(CC)S(=O)(=O)c1ccc(NC(=O)c2ccccc2N(C)S(C)(=O)=O)cc1	2	-15	0.1	2	-2%
Oc1ccc(C23CC4CC(CC(C4)C2)C3)cc1O	-4	.	-0.2	.	.
CCCCc1n(CC(=O)c2ccc(Cl)cc2)c2ccccc2[n+]1C	-2	.	-0.3	3	-2%
N/C(=N\O)c1ccccc1-n1cccc1	-2	.	-4.3	3	2%
O=C(CN1C(=O)CCSc2ccccc21)Nc1ccccc1	-3	-26	1.0	6	-5%
O=C(NC[P+](=O)O)OCc1ccccc1	-11	-26	-0.7	-1	0%
CCNc1nc(NCC)nc(OCCNS(=O)(=O)c2cc(C)ccc2C)n1	-7	-11	-0.3	5	1%	Arbovirus anti repeat=8
CC(C)CC(NC(=O)C1CCC(C)CC1)C(=O)NCc1ccco1 (stereo not drawn)	3	.	0.4	6	4%
O=C(C1CC(c2ccc(F)cc2)=NO1)N1CCCc2ccccc21 (stereo not drawn)	10	-5	1.1	0	2%
CCCCNCCCOc1cccc(Cl)c1	-5	-14	2.9	16	4%
O=C(CSCSCC(=O)NCC1CCCO1)NCC1CCCO1 (stereo not drawn)	0	-6	-1.2	3	-15%
CC(=O)c1nnn(-c2ccc(Cl)cc2C#N)c1C	-1	.	1.5	.	.
COc1cc(Br)c(C(C)NC(=O)c2ccccc2)cc1OC (stereo not drawn)	-4	-37	-9.6	4	-7%
C/C(CCN1CCCCc2nc(C)c(C)cc21)=N\OC[C@@H](O)[C@H]1O[C@@H]2OC(C)(C)O[C@@H]2[C@H]1O	.	-8	.	2	-12%
COCCN(CC(=O)NC1CCCCC1)C(=O)c1csnn1	11	-37	0.4	-3	-12%
O=C(NC1CCN(Cc2ccccc2)CC1)c1ccc(Cn2c(=S)[nH]c3ccc(N4CCOCC4)cc3c2=O)cc1	30	.	-13	-14	0%
COc1ccc(CCNC(=O)CNC(=O)c2nn(-c3ccc(OC)c(OC)c3)c(=O)c3ccccc23)cc1OC	-3	.	-1.8	.	.
COCCn1c(-c2ccsc2)nc2c1c(=O)[nH]c(=O)n2CC(C)C	-1	-19	-3.8	-1	1%
CC1CCCCC1NC(=O)COC(=O)COc1ccc(Cl)cc1 (stereo not drawn)	4	-18	.	3	6%
O=C(COc1ccccc1)Nc1nn[nH]n1	2	-20	-1.4	2	.
Cc1nn(Cc2c(F)c(F)c(F)c(F)c2F)c(C)c1NC(=O)c1ccc(COc2cc(Cl)ccc2Cl)cc1	34	-8	0.5	-19	-6%
O=c1[nH]c(C2CCN(S(=O)(=O)c3cccc(C(F)(F)F)c3)CC2)nc2c1nnn2Cc1cccc(F)c1	-10	.	3.0	.	.
CCCn1nc(NS(C)(=O)=O)c2cc3cccc(C)c3nc21	-3	-32	-3.0	13	-8%
Cc1ccc(C)c(S(=O)(=O)Nc2cccc(-n3cnnn3)c2)c1	5	.	-4.3	.	.
COc1ccc(/C(O)=C2/C(=O)C(=O)N(CCN(C)C)C2c2cccnc2)cc1OC (stereo not drawn)	0	.	0.3	15	-10%

Screens as filed in PubChem.

This is a subset; count on the stated rates, not on these rows.
